Source: PubChem
AID504770 – E. coli YBA685 growth inhibition, screen for V. cholerae RctB inhibitors; E. coli YBA685 rctB-dependent plasmid, OD600 growth, 3 h; active compounds read low; z-score (concentration not given with the values); 130,000 tested, 0.27% active;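 active = z-score under -2 on both plates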;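 also: wells of about 30 µL received 100 nL stock; score is relative to mean and SD of the test wells; the first replicate is given; strong numbers were not always called active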
CapD inh – blocks the Bacillus anthracis CapD enzyme | purified CapD enzyme, fluorescence intensity read-out; active compounds read low; some hits fall short of the stated cut | z-score (concentration not given with the values) | 140,000 tested, 0.23% active | AID 492967;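 active = z-score under -4 in either of two replicates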;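 also: stock transfer was 100 nL into about 40 µL; score is relative to mean and spread of the plate; one replicate is shown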
The depositor's hits bear a star; · = not tested or not shown. The order is random, and some 0.37% of all compounds hit somewhere here.

Compound	CapD inh	AID504770
Cc1[nH]n(-c2ccccc2)c(=O)c1/C=C1\C=c2ccccc2=NC1=O	-0.065	0.25
O=C(COc1ccc(Br)cc1)OC1CCS(=O)(=O)C1 (stereo not drawn)	-0.38	2.35
O=c1/c(=C/c2ccccc2)sc2nc(-c3ccco3)nn12	-1.45	0
O=C(/N=C1\N=C2N=CC=CN2Cc2ccccc21)Nc1ccc(Cl)cc1	·	-0.85
CC1CCCC(C)N1C(=O)NC(=O)c1ccccc1 (stereo not drawn)	·	-0.65
S=C(SCc1nnc(-c2ccc(Cl)cc2)o1)N1CCCC1	·	-0.35
O=C(O)c1ccc(N2CCCC2=O)cc1O	0.065	-1.15
CC(C)COc1ccc(C(=O)NN)cc1	·	-1.15
O=C(COC(=O)C1CCN(S(=O)(=O)c2cccs2)CC1)c1cc2ccccc2o1	·	0.55
COC(=O)C(O)(CC(=O)O)C(F)(F)F (stereo not drawn)	·	-1.05
Cc1ccc(N2CCN(C(=O)Cn3nc(Cc4cccnc4)c4ccccc4c3=O)CC2C)cc1 (stereo not drawn)	-0.375	-0.15
O=C(CCCN1C(=O)/C(=C/c2ccccc2)SC1=S)Nc1ccc(C(=O)O)cc1	-1.85	-2
CCC(C)(C(=O)NC1CCCC1)N(Cc1ccco1)C(=O)c1ccccn1 (stereo not drawn)	0.55	0
S=C(NCc1ccco1)N/N=C/c1cccnc1	-1.75	·
Cc1onc(-c2ccccc2Cl)c1C(=O)Nc1cccc2cccnc12	-0.36	·
COc1ccc(C2=NN3C(C2)c2cc(Cl)ccc2OC3c2ccc(OC)c(OC)c2)cc1 (stereo not drawn)	-0.29	·
COc1ccc(OC)c(CN2CCCCC2COC(=O)N2CCN(c3cccc4[nH]ccc34)CC2)c1 (stereo not drawn)	1.1	·
CSc1nc(Oc2ccc3ccccc3c2)c2sc3ccccc3c2n1	-0.355	·
O=C(O)CC(Cc1ccccc1)C(=O)O (stereo not drawn)	0.085	1.6
COc1cccc(C2=NN3C(C2)c2cccc(OC)c2OC3c2ccc(SC)cc2)c1 (stereo not drawn)	0.595	·
Cc1cc(C)cc(NC(=O)NC(C)(C)C)c1	-0.46	1.05
O=C1Nc2ccccc2C1Cc1ccc(N=Cc2cc(Cl)cc(Cl)c2O)cc1 (stereo not drawn)	-0.2	-0.8
Cn1c(=O)c2c(=S)nc(C3CC3)[nH]c2n(Cc2ccccc2)c1=O	·	-1.2
COc1ccc(/C(O)=C2\C(=O)C(=O)N(CCCO)C2c2ccc(OC)cc2OC)cc1 (stereo not drawn)	8.68	·
CCNC(=O)C1CCN(c2ncnc3c2nc2n3CCCCC2)CC1	-0.17	-0.25
COc1ccc([C@@H]2[C@@H](C(=O)C34CC5CC(CC(C5)C3)C4)N3c4ccccc4C=C[C@@H]3C2(C#N)C#N)cc1OC	-0.215	·
O=C(O)CSc1c2c(nc3cc(C(=O)NC4CCCCCC4)ccc13)CCC2	-0.82	1.7
CC(OC(=O)C1CC1)C(=O)Nc1ccnn1C(C)C (stereo not drawn)	·	-0.1
O=C(c1ccc2c(=O)n(CCC3=CCCCC3)c(=S)[nH]c2c1)N1CCN(c2ccccn2)CC1	-0.185	·
Cc1ccc(-c2nn(CCC(=O)N3CCCC3)c(=O)c3ccccc23)cc1	-0.35	-1.35
CC(C)Sc1c(Cl)cccc1NC(=O)Nc1ccccc1	-0.695	·
COc1ccc(NC(=O)[C@@H]2CCCN2S(=O)(=O)c2ccc(C)cc2)cc1	·	1.35
C=C(C)Cc1c(C)nc(SCC(=O)C(C)(C)C)nc1OC(=O)N(C)C	0.49	-2.9
CCOC(=O)N1CCN(S(=O)(=O)c2ccc(-n3cnnn3)cc2)CC1	-0.21	0.85
CN(/N=C\C=C\c1ccccc1)c1ccccn1	-2.15	0.35
N#Cc1c(-c2ccccc2Cl)noc1/C=C/Nc1cc(Cl)cc(Cl)c1	-0.5	·
O=C(NC1CCCC1)c1nnc(Cc2ccc(Cl)cc2)o1	-1.19	0.3
Cc1[nH]c2ccccc2c1C(Nc1nccs1)c1ccc(C(C)C)cc1 (stereo not drawn)	0.105	1.05
CC(C)NC(=O)COc1ccc2ccccc2c1	1.51	0.85
CCn1c(=NC(=O)c2ccc(S(=O)(=O)N3CCOCC3)cc2)sc2ccccc21	2.4	2.25
Cc1ccc(N=C(N)N=C(N)N)cc1Cl	-0.175	·
CN(C(=O)NC(=O)C1=C(N2CCOCC2)/C(=C\c2ccccc2)CC1)S(C)(=O)=O	·	-0.5
CCCCCn1c(SCC(=O)Nc2ccccc2Cl)nc2cc(C(=O)NCc3ccco3)ccc2c1=O	-0.58	·
O=C(c1ccccc1)c1ccccc1NS(=O)(=O)c1ccccc1	0.3	-0.3
CCOC(=O)c1[nH]c2ccc(C)cc2c1NC(=O)OC	·	-0.05
CCSc1nnc(NC(=O)COC(=O)CC(NC(=O)c2ccccc2)c2cccc(OC)c2)s1 (stereo not drawn)	-0.23	·
O=C(CSc1ccccn1)Nc1ccc2c(c1)OCCO2	-0.87	-1.1
O=S(=O)(CCSc1ccc(C(F)(F)F)cn1)c1ccccc1	-0.36	0.1
CC1=NN(c2ccc(Cl)c(C(=O)O)c2)C(=O)/C1=C\c1ccc(-c2cc([N+](=O)[O-])ccc2Cl)o1	0.36	·
NC(=O)c1cc[n+](CC(=O)N2CCOCC2)cc1	-0.045	-0.45
Nn1c(Nc2ccccc2)nc2sc3c(c2c1=O)CCC3	23.7	1.2
CCc1ccc(-c2cc(C)no2)cc1S(=O)(=O)Nc1ccccc1	-0.23	0
O=c1oc(-c2ccc(F)cc2)nc2sc3c(c12)CCCC3	1.35	0.35
COC(=O)c1sc2nc(SCC(=O)N(C)c3ccccc3)n(N)c(=O)c2c1C	1.57	-0.3
CC(C)(C)C1CCc2c(sc(NC(=O)c3cc4n(n3)C(C(F)(F)F)CC(c3ccco3)N4)c2C(N)=O)C1 (stereo not drawn)	0.95	·
Cc1ccc(CNC(=O)c2c[nH]c3ccc(S(=O)(=O)Nc4ccc(C)cc4C)cc3c2=O)cc1	0.045	0.35
Cc1c2occ(C(C)(C)C)c2cc2c3c(c(=O)oc12)CCCC3	0.255	1.5
Fc1ccc(C2Nc3ccc(OC(F)(F)F)cc3C3C=CCC32)cc1 (stereo not drawn)	0.42	1.6
CCN(Cc1ccccc1)c1ncnc2onc(-c3ccc(F)cc3)c12	1.42	0.75
COc1ccc(NC(=O)c2c[nH]c(=O)n(-c3ccccc3)c2=O)cc1	-0.575	2.65

Shown as labelled records: entries from further up
CC(C)(C)C1CCc2c(sc(NC(=O)c3cc4n(n3)C(C(F)(F)F)CC(c3ccco3)N4)c2C(N)=O)C1 (stereo not drawn)
  CapD inh = 0.95	AID504770 = ·
Cc1ccc(CNC(=O)c2c[nH]c3ccc(S(=O)(=O)Nc4ccc(C)cc4C)cc3c2=O)cc1
  CapD inh = 0.045	AID504770 = 0.35

Additional records.
Compound	CapD inh	AID504770
COc1ccc(/C=C/c2nc3scc(-c4cccs4)c3c(=O)o2)cc1	0.2	·
Fc1cccc2[nH]c3nc(=S)[nH]nc3c12	-0.35	·
C/C(=N\NC(=S)NC1CCCCC1)c1ccc(S(=O)(=O)NCc2ccco2)cc1	·	1.1
O=c1[nH]c(=O)n(Cc2c(Cl)cccc2Cl)cc1F	1.08	-0.25
c1ccc(CSc2nnc3c4ccccc4n(Cc4ccccc4)c3n2)cc1	0.425	-0.4
Cc1csc(=O)n1CCC(=O)OCC(=O)Nc1ccccc1	·	0.25
Cn1nnnc1SCC1=C(C(=O)O)N2C(=O)C(NC(=O)C(OC=O)c3ccccc3)C2SC1 (stereo not drawn)	0.41	-0.05
Cc1c(C(=O)O)cccc1C(=O)c1ccccc1	3.42	-0.95
CN(C)CCSc1nnc(-c2ccccc2)o1	·	-0.4
CC(NC(=O)COc1ccc2ccccc2c1)C(=O)O (stereo not drawn)	·	0.95
CC(C)(C)OC(=O)/C=C/c1c(Cl)nc2sccn12	-1.22	0.05
Cc1cc(C)c(C)c(S(=O)(=O)N2CCN(c3cnccn3)CC2)c1C	17.6	·
O=C1N=c2ccc(Br)cc2=C1c1sc(=S)n(NC(=O)c2ccccc2[N+](=O)[O-])c1O	2.16	·
CCOC(=O)c1cc(CC)sc1NC(=O)C(Cl)(Cl)Cl	0.43	·
CCOc1cccc2c1Oc1nc(-c3ccccc3)nc(SCC(=O)N(CC)CC)c1C2	11.7	0.1
CNC(=O)CCCN1C(=O)CSc2ncccc21	-0.145	-0.45
N#CC(C#N)=C(C#N)c1ccc(-c2ccccc2)[nH]1	·	2.8
Clc1ccc(CSc2cccs2)cc1	-0.585	·
Cc1noc(C)c1COC(=O)/C=C/c1cn(-c2ccccc2)nc1-c1cc2ccccc2oc1=O	·	0.95
COC(=O)c1ccc(S(=O)(=O)N(C)C)o1	·	-0.75
COc1ccc(NC(=O)CCn2c(=O)sc3ccccc32)cc1	0.23	0.4
Cn1c(NC(=O)c2ccco2)c(-c2ccccc2)c(=O)c2ccccc21	·	-0.25
O=C(OC1CC1(Cl)Cl)c1ccccc1 (stereo not drawn)	-0.695	-1.6
COCCN1C(=O)NC(=O)/C(=C\c2ccc(Br)cc2)C1=O	-0.37	·
COC(=O)/C=C/c1cn(C2OCC(CO)C2O)c(=O)[nH]c1=O (stereo not drawn)	-0.13	1.8
O=C(CNC(=O)c1sc2ccccc2c1Cl)Nc1ccc(-n2cnnn2)cc1	·	0.2
Cc1c(-c2cc(NC(=O)c3ccccc3)n[nH]2)sc2ccc(Cl)cc12	4.24	0.95
CCOC(=O)c1c(-c2ccccc2)oc2ccc(NS(=O)(=O)c3c(C)cc(C)cc3C)cc12	5.13	·
Cc1nn(CC(C)C)c(Cl)c1C(=O)NCc1cccnc1	·	-0.2
COc1ccc(Oc2nc3cc(Cl)c(Cl)cc3nc2C(F)(F)F)cc1	-0.115	·

In another format: entries from further up.
CCOC(=O)c1cc(CC)sc1NC(=O)C(Cl)(Cl)Cl
  CapD inh = 0.43; AID504770 = ·

C/C(=N\NC(=S)NC1CCCCC1)c1ccc(S(=O)(=O)NCc2ccco2)cc1
  CapD inh = ·; AID504770 = 1.1

O=C(CNC(=O)c1sc2ccccc2c1Cl)Nc1ccc(-n2cnnn2)cc1
  CapD inh = ·; AID504770 = 0.2

Clc1ccc(CSc2cccs2)cc1
  CapD inh = -0.585; AID504770 = ·

The listing continues.
Compound	CapD inh	AID504770
O=C(CNCc1cccnc1)N1c2ccccc2Sc2ccc(C(F)(F)F)cc21	-0.05	·
COc1cc(NC(=O)c2nc3ncccn3n2)cc(OC)c1OC	-0.16	-0.35
Cn1nc(C(F)(F)F)c(-c2ccccc2)c1/N=C/c1ccc[nH]1	-1.01	-0.25
CCN1C=C(c2ccc3ccccc3n2)C(C[N+](=O)[O-])c2ccccc21 (stereo not drawn)	2.98	·
COc1nc(NS(=O)(=O)c2ccc(NC(C)=O)cc2)nc(C)c1Cl	-0.245	·
COc1ccc(Cn2c(SC)nc3ccccc32)cc1	·	-0.2
O=C(Cc1cccc(C(F)(F)F)c1)NC1=NCCS1	·	-0.05
Cc1cc(N2CCOCC2)ccc1/C=C1\NC(=O)N(Cc2ccccc2)C1=O	3.42	1.2
CCOC(=O)c1ccc(NC(=O)c2cc3ccccc3c(=O)s2)cc1	-0.025	0.05
Nc1cccc(OCCOCCOc2cccc(N)c2)c1	·	1.5
C/C(N)=C(/C#N)C(=O)CSc1nnc2c(Cl)cc(Cl)cn12	·	-0.95
C=CCn1nnnc1SCC(=O)Nc1cccc(C(F)(F)F)c1	·	-0.4
O=C1CSc2ccc(C(=O)N3CCN(Cc4ccc5c(c4)OCO5)CC3)cc2N1	·	-0.5
CC1(C)CC(=O)c2ccc(OCc3ccc(F)cc3)cc2O1	0.485	0.1
CCC1=[N+]([O-])C(C)(C)C(c2ccccc2)=[N+]1[O-]	-2.81	-0.65
O=C(Nc1ccc(Br)cc1C(F)(F)F)C(Cl)Cl	0.525	·
O=C(CC(C(=O)O)N1CCNCC1)Nc1ccccc1Cl (stereo not drawn)	·	0.15
CN(C)P(=NC(=S)c1cccn1C)(N(C)C)N(C)C	·	-0.3
COC(=O)Cn1c(C(F)(F)F)nc2ccccc21	-0.135	0.15
Cc1cc(C)c(S(=O)(=O)N2CCCCC2)cc1C	-0.13	-0.1
Cc1nc(N2CCOCC2)nc(NCc2ccccc2)c1[N+](=O)[O-]	-0.66	·
CCn1nc(C)c(Br)c1-c1nc(-c2cccc(C(F)(F)F)c2)no1	-0.195	1.15
O=c1o[nH]c(-c2ccccc2)c1C=Nc1ccc(Cl)cc1	-0.915	0.2
NNC(=S)Nc1cc(C(F)(F)F)ccc1Cl	0.39	·
Cc1ccc(/C(O)=C2\C(=O)C(=O)N(c3nncs3)C2c2cccc(Br)c2)cc1 (stereo not drawn)	-0.5	·
Brc1ccc2nc(-c3ccco3)c(Nc3ccccc3)n2c1	0.165	-0.3
O=C(N/N=C/c1cccs1)N/N=C/c1cccs1	-2.67	·
COc1cccc(Nc2ncc3c(n2)CCNC3)c1	0.295	-0.75
Nc1cc(=O)[nH]c2nnc(SCc3ccc(Br)cc3)n12	0.805	0.35
CCCCS(=O)(=O)c1c(-c2ccccc2)c2cc(Cl)ccc2[nH]c1=O	11.3	-1.1
CN(CC(=O)N1CCCC1c1nc2ccccc2s1)S(=O)(=O)c1ccc(Cl)s1 (stereo not drawn)	·	-0.45
CCOC(=O)c1ccc(NC(=O)CC#N)cc1	·	0.9
